High-throughput results as filed in PubChem.
Calb biofilm kill = clotrimazole potentiators killing C. albicans biofilm, primary screen, 4-compound mixtures | C. albicans biofilm persisters + clotrimazole, fluorescence viability; primary screen in compound mixtures of four per well | inhibition, % at 7.6 µM | actives 0.02% (n = 120,000) | AID 1242, 2008;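 active means inhibition above 30.3% in the primary screen of four-compound pools, then above 30% when the compound was retested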;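 further: compounds exposed to preformed 24 h biofilms for 48 h; the number belongs to the whole pool; some results filed as inactive read as strong as hits; inactives centre near 12; 0% = biofilm with clotrimazole alone and 100% = kill control; retested singly at about 60 µM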
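Probe or stimulus – Clotrimazole 50 µg/mL co-treatment · System – C. albicans biofilms · Schedule – 24 h biofilm formation, then 48 h compound exposure, 37 °C · Evaluation – percent inhibition of biofilm viability · Technique – 2-h Alamar Blue fluorescence, 535/590 nm excitation/emission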
Starred values were filed as active, the others as inactive. Some of the compounds tested; rates above refer to the full screens.

How did Cc1nnc(NS(=O)(=O)c2ccc(N)cc2)s1 do in these assays?
Calb biofilm kill: 14

What do the screens show for `O=C1NCC2(CCN(CCc3ccccc3)CC2)O1`?
Calb biofilm kill: 32

How did COc1cc2nc(N3CCN(C(=O)C4COc5ccccc5O4)CC3)nc(N)c2cc1OC (stereo not drawn) do in these assays?
Calb biofilm kill: 16

How did NS(=O)(=O)c1cc2c(cc1C(F)(F)F)NC(Cc1ccccc1)NS2(=O)=O (stereo not drawn) do in these assays?
Calb biofilm kill: 16

What do the screens show for `C[C@]12CC[C@H]3[C@@H](CCC4=CC(=O)CC[C@@]43C)[C@@H]1CC[C@@H]2C(=O)CO`?
Calb biofilm kill: 8

What do the screens show for `Nc1cc(-c2ccncc2)c[nH]c1=O`?
Calb biofilm kill: -2

Results for c1ccc2c(CC3=NCCN3)cccc2c1 ?
Calb biofilm kill: 6

What do the screens show for `CC(=O)[C@H]1CC[C@H]2[C@@H]3C[C@H](C)C4=CC(=O)CC[C@]4(C)[C@H]3[C@@H](O)C[C@]12C`?
Calb biofilm kill: 19

Results for COc1ccc(CN(CCN(C)C)c2ccccn2)cc1 ?
Calb biofilm kill: 17

Results for CC(C)Cn1cnc2c1c(=O)n(C)c(=O)n2C ?
Calb biofilm kill: 21

What do the screens show for `CC1=NN(c2ccccc2)C(=O)C1`?
Calb biofilm kill: 15

What do the screens show for `CN(C)CCCN1c2ccccc2Sc2ccccc21`?
Calb biofilm kill: 0

What do the screens show for `Cc1coc2c1C(=O)C(=O)c1c-2ccc2c1CCCC2(C)C`?
Calb biofilm kill: 16

What do the screens show for `COc1ccccc1OCC(O)COC(N)=O` (stereo not drawn)?
Calb biofilm kill: 19

Results for CCCn1ncc(CN2CCCC(C(=O)c3cccc(OC(C)C)c3)C2)c1C (stereo not drawn) ?
Calb biofilm kill: 13

Structures above containing two or more sulfur atoms, in the order listed:
How did Cc1nnc(NS(=O)(=O)c2ccc(N)cc2)s1 do in these assays?
Calb biofilm kill: 14

How did NS(=O)(=O)c1cc2c(cc1C(F)(F)F)NC(Cc1ccccc1)NS2(=O)=O (stereo not drawn) do in these assays?
Calb biofilm kill: 16

Quoted at random: two entries already listed, in no set order.
What do the screens show for `CC1=NN(c2ccccc2)C(=O)C1`?
Calb biofilm kill: 15

What do the screens show for `CN(C)CCCN1c2ccccc2Sc2ccccc21`?
Calb biofilm kill: 0

Filtered by structure: the compounds so far with sulfur (3)
How did Cc1nnc(NS(=O)(=O)c2ccc(N)cc2)s1 do in these assays?
Calb biofilm kill: 14

How did NS(=O)(=O)c1cc2c(cc1C(F)(F)F)NC(Cc1ccccc1)NS2(=O)=O (stereo not drawn) do in these assays?
Calb biofilm kill: 16

What do the screens show for `CN(C)CCCN1c2ccccc2Sc2ccccc21`?
Calb biofilm kill: 0
